# EPAC1 agonist: Validation qHTS for agonist of cAMP-regulated guanine nucleotide exchange factor 3 (EPAC1); EPAC1 Rap1b BODIPY-GDP exchange, fluorescence; AID 1645883, 2021; Potency, µM, for inactives: max response, positive = active, hits mostly activators; actives 1% (n = 16,000); active = well fitted activation curve with a large enough effect; inconclusive = small, poorly fitted or top-dose-only effect; inactive = no such curve, though single readings can be large or run the other way;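 also: nearly all actives have a fitted effect of over 70% in size; series mostly up to about 76 or 150 µM; scaled to a cAMP control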
# Target sequence (O95398 whole entry, looked up): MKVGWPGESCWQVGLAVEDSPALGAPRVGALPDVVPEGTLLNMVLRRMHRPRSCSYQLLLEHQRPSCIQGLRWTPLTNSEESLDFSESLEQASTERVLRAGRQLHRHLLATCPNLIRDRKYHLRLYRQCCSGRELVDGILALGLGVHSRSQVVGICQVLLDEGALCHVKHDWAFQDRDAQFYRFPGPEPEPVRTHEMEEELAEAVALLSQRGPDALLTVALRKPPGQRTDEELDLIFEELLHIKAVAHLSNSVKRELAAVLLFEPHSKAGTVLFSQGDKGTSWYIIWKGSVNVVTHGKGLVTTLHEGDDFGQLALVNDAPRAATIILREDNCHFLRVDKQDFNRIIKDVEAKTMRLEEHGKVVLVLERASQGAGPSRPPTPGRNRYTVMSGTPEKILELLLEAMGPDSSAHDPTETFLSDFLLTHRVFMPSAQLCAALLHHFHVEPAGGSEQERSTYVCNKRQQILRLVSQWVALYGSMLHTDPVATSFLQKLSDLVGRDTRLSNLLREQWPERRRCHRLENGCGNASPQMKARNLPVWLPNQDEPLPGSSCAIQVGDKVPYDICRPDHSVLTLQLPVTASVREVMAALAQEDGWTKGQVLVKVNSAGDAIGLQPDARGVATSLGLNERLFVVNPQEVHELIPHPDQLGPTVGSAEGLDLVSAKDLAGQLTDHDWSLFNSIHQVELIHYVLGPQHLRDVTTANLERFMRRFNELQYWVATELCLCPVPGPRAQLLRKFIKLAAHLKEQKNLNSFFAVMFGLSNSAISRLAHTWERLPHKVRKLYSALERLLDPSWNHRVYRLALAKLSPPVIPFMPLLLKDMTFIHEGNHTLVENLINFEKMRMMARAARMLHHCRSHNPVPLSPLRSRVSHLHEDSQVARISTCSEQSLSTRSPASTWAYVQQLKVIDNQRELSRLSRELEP
# Active calls of the source: *; ? = inconclusive; & = joins results of further samples; ! = not active in a repeat; [ ] = another dose, or the depositor's remark. % is scaled to controls: 0 for no effect and ±100 for the full control effect; potency is read from the fitted curve at half-maximal effect.
Compound	EPAC1 agonist
CC1=C2C(O)C(=O)OC3CC4C(C)(C)C(=O)C=C[C@]4(C)C(CC1)[C@@]23C (stereo partly drawn)	?
C=C(C)C1Cc2c(ccc(C(=O)O)c2O)O1 (stereo not drawn)	-8.4%
c1ccc2sc(SSc3nc4ccccc4s3)nc2c1	-0.4%
COc1cccc2c3c(c(C)nc12)CC(CO)O3 (stereo not drawn)	17.1%
COC1=C(C(=O)O)N2C(=O)[C@@H](NC(=O)[C@H](N)C3=CCC=CC3)[C@H]2SC1	11.3%
Nc1nc2c(nc(Sc3ccc(Cl)cc3)n2C2OC(CO)C(O)C2O)c(=O)[nH]1 (stereo not drawn)	-5.6%
Cc1ccc(S[C@@H](CCN2CC[C@H](NC(=O)OCc3ccccc3)CCC2=O)c2ccccc2)cc1	?
CC(=O)N1CCC[C@@]2(CCN(C(=O)Nc3ccccc3)C2)C1	11.3%
CCc1nc(CN2CCOc3ccc(C(O)C4CCCCC4)cc3C2)c(C)[nH]1 (stereo not drawn)	-3.9%
COc1cccc(CN2C(=O)NC(C)(C3CCN(Cc4cc(Cl)ccc4O)CC3)C2=O)c1OC (stereo not drawn)	-2.7%
O=C1c2ccccc2C(=O)C1c1ccccc1	?
COC(=O)c1c(-c2cc(OC)c(OC)c(OC)c2)c2ccnc(OCc3ncccn3)c2c(=O)n1Cc1ccnc(C)c1	4.0%
NC(=O)C1=CN(C2OC(COP(=O)(O)OP(=O)(O)OC[C@H]3O[C@@H](n4cnc5c(N)ncnc54)[C@H](OP(=O)(O)O)[C@@H]3O)C(O)C2O)C=CC1 (stereo partly drawn)	7.7%
O=C1[C@@H]2[C@H]3CC[C@H](C3)[C@@H]2C(=O)N1CCCCN1CCN(c2ncccn2)CC1	4.6%
COCC(=O)Nc1cc(C(=O)N2CCCC(C(N)=O)C2)cc2nc(-c3ccccc3)n(C)c12 (stereo not drawn)	-17.9%
CC[C@H](C)C(=O)O[C@H]1C[C@H](O)C=C2C=C[C@H](C)[C@H](CC[C@@H](O)C[C@@H](O)CC(=O)O)[C@H]21	-29.3%
c1ncc(CC2CCNCC2)[nH]1	-8.6%&-8.2%
O=c1cc[nH]c(=S)[nH]1	6.0%
CN(C)c1ccc(-c2cncnc2NCCc2cnc[nH]2)cc1	6.1%
COCCOC(=O)C1=C(C)NC(C)=C(C(=O)OC(C)C)C1c1cccc([N+](=O)[O-])c1 (stereo not drawn)	3.9%&-20.4%&5.6%&10.5%
COC(=O)/C=C/c1ccc(C(=O)NCC(=O)N[C@@H](CCC(=O)OC)C(=O)N[C@@H](CC(C)C)C(N)=O)cc1	-5.3%
O=c1onc2cnc3ccccc3n12	17.8%&-17.6%
CC(C)[N+]1(C)[C@@H]2CC[C@H]1CC(OC(=O)C(CO)c1ccccc1)C2 (stereo partly drawn)	?
O=C(OC[C@H]1O[C@](O)(COC(=O)c2cccnc2)[C@@H](OC(=O)c2cccnc2)[C@@H]1OC(=O)c1cccnc1)c1cccnc1	-15.6%
COC(=O)CCc1ccc(OCC(O)CNC(C)C)cc1 (stereo not drawn)	10.6%
COc1ccc2[nH]cc(CCNc3ncncc3-c3ccccc3Cl)c2c1	-26.5%
Cc1nn(-c2ccccc2)c(C)c1/C=N/N1CCN(Cc2ccccc2)CC1	-3.0%
Cc1nc2n(c(=O)c1CCN1CCC(c3noc4cc(F)ccc34)CC1)CCCC2	8.4%
COc1ccc2[nH]cc(CCNc3cc(-c4cccc(C#N)c4)ncn3)c2c1	5.5%
OCCN1CCN(Cc2ccc3c(c2)CN(Cc2cccn2-c2ccccn2)CCO3)CC1	-5.3%
COC(=O)C1=C(C)NC(C)=C([N+](=O)[O-])[C@@H]1c1ccccc1C(F)(F)F	-14.2%
O=C(O)CCC(=O)Nc1ccc(S(=O)(=O)Nc2nccs2)cc1	?
COc1cc(-c2c(-c3ccc4c(c3)OCO4)noc2C)ccc1F	?
Cc1ccc2c(c1)CN(CCC(=O)NCc1cc(C)n(C)n1)CC(C)O2 (stereo not drawn)	-2.8%
COc1ccc(Cl)cc1N=Nc1ncc[nH]1	-14.6%&8.2%
CCCCOC(=O)c1ccc(O)cc1	-25.5%
COc1ccccc1CNc1nc(-c2ccc(N(C)C)cc2)nc2ccccc12	?
CC(O)COc1ccccc1 (stereo not drawn)	2.1%
COc1ccccc1CN1CCCC2(CCN(C(=O)c3cnccn3)CC2)C1	-51.3%[inhibitor]
CCCCCCCC(=O)O[C@H](CC(=O)O)C[N+](C)(C)C	2.0%
C[C@@H](NCCc1ccc(O)cc1)[C@@H](O)c1ccc(O)cc1	6.4%
CCc1ccccc1N(C)C	8.7%
COc1cc2c(cc1OC)C(=O)Cc1ccc3c(c1CN(C)CC2)OCO3	7.6%&3.1%
c1cncc(CNc2nc(-c3ccoc3)nc3ccccc23)c1	-25.3%
COc1ccc(CN2CCOc3ccc(CN4CCN(CCO)CC4)cc3C2)c2ccccc12	-5.0%
COC(=O)C1CCCCN1Cc1ccc2c(c1)CN(C(=O)c1csc(-c3cccs3)n1)CCO2 (stereo not drawn)	0.4%
COCCOC(=O)C1=C(C)NC(C)=C(C(=O)OC(C)C)[C@@H]1c1cccc([N+](=O)[O-])c1	-0.4%
FC(F)(F)c1ccccc1-c1cncnc1-n1ccnc1	-2.4%
COc1ccc(CC(=O)c2ccc(O)cc2O)cc1	-13.9%
COC(=O)C[C@H]1c2cc(C(F)(F)F)ccc2S(=O)(=O)N1C(C)C	-79.0%[inhibitor]

# Additional results.
Compound	EPAC1 agonist
O=Cc1cc2c3c(c1)CCCN3CCC2	?
CCCCCC1CCNCC1	14.4%
C#Cc1cccc(Nc2ncnc3cc(OC)c(OC)cc23)c1	-11.8%
Cc1ccccc1-c1ccc2ncnc(N3CCOCC3)c2c1	-31.0%[inhibitor]
Cc1ccc(Cl)c(Nc2ccccc2C(=O)O)c1Cl	10.0%&0.5%&3.6%
O=c1oc2cc(O)ccc2cc1-c1ccc2c(c1)OCCO2	?
CCOC(=O)C[C@H]1c2ccccc2S(=O)(=O)N1Cc1cccc(C(F)(F)F)c1	-7.6%
O=CC(=O)c1ccc(Cl)cc1	1.5%
COc1ccccc1N1CCN(CCN2C(=O)CC3(CCCC3)CC2=O)CC1	0.9%&-3.9%&7.8%
CN(Cc1ccco1)c1cc(-c2cccc(NS(C)(=O)=O)c2)ncn1	7.1%
C=C(C)C1CC=C(CO)CC1 (stereo not drawn)	12.7%
COc1cccc(CN2CCC3(CCC(CNC(=O)c4cc(C)nn4C)O3)CC2)c1OC (stereo not drawn)	7.3%
COC(=O)N1CCC2(CC1)CN(C(=O)Nc1ccc(OC)cc1)C2	2.8%
Nc1nc(Cl)c2ncn(C3OC(CO)C(O)C3O)c2n1 (stereo not drawn)	-0.4%
O=C(Nc1cccc(F)c1)N1CC[C@@]2(CCCNC2)C1	-82.9%[inhibitor]
CN(Cc1ccco1)c1ncnc2ccc(-c3ccccc3C#N)cc12	-6.9%
O=C1CCN(Cc2ccc(Br)cc2)CCN1[C@H](CO)Cc1ccccc1	?
COc1cc2c(cc1OC)-c1cc3cc(OC)c(OC)cc3c(=O)n1CC2	-32.0%[inhibitor]
O=C(c1cccc(F)c1)N1CCC2(CC1)CCN(c1ccccn1)CC2	-37.3%[inhibitor]
CC(=O)OC1CCC2(C)C(=CC=C3C2CCC2(C)C3CCC2C(C)/C=C/C(C)C(C)C)C1(C)C (stereo not drawn)	26.7%

# (next part)
SMILES	EPAC1 agonist
COc1ccc([C@@H]2[C@@H](O)[C@H](O)[C@@H](C)N2C)cc1OC	-11.4%
CC(C)(C)[C@@H]1CCC(=O)N(CC[C@H](N=[N+]=[N-])c2ccccc2)CC1	-35.3%[inhibitor]
N=C(N)c1ccccc1	1.4%
Cc1cccc(CNc2ncncc2-c2ccccc2CN(C)C)c1	-36.8%[inhibitor]
O=C(O)c1c(C(=O)O)c2ccccc2[nH]c1=O	-3.0%
COCCn1c(=O)c(-c2cccs2)nc2cnc(Oc3ccc(OC)cc3)nc21	?
COCC(=O)N1CCC2(CC1)CCN(C(c1ccccc1)c1ccccc1)CC2	7.4%
COCCn1c(=O)c(-c2ccc(Cl)cc2)nc2cnc(Oc3ccc(OC)cc3)nc21	-13.5%
COCCn1c(=O)cnc2cnc(OC)nc21	12.0%
Nc1ccc(/C=C/c2ccc(N)cc2S(=O)(=O)O)c(S(=O)(=O)O)c1	?
COC(=O)C[C@H]1c2ccccc2S(=O)(=O)N1Cc1ccc(OC)cc1	-10.4%
CN1CC[C@@]2(CCCN(S(=O)(=O)c3ccccc3)C2)C1	15.2%
COc1cccc(Cn2c(=O)c(CCc3ccccc3)nc3cnc(N4CCNCC4)nc32)c1	12.0%
CN(C)c1ncnc2ccc(-c3ccoc3)cc12	-23.1%
CCn1c(-c2ccccc2F)nc2cc(NC(C)=O)cc(C(=O)NC(c3ccccn3)C(F)(F)F)c21 (stereo not drawn)	3.4%
COc1ccccc1CNc1ncncc1-c1ccoc1	4.4%
O=C(c1cccc(Cn2cccn2)c1)N1CCC(n2c(C3CCCO3)nc3cc(C(F)(F)F)ccc32)CC1 (stereo not drawn)	-8.0%
Cn1c(=O)c(-c2ccc(Cl)cc2)nc2cnc(N3CCOCC3)nc21	-12.1%
O=C(O)C(=O)Nc1cccc(C2=NN=N[N]2)c1	-9.6%
NC[C@@H]1O[C@H](O[C@H]2[C@H](O)[C@H](O[C@H]3[C@@H](O)[C@H](N)C[C@H](N)[C@H]3O[C@H]3O[C@H](CN)[C@H](O)[C@H](O)[C@H]3N)O[C@@H]2CO)[C@@H](N)[C@@H](O)[C@@H]1O	-21.8%
COc1ccc(C2c3[nH]c4ccccc4c3CC3C(=O)N(CCc4ccc(OC)c(OC)c4)CC(=O)N32)cc1 (stereo not drawn)	?
COc1ccc(C(=O)C[N+]2(C)CCOCC2)cc1	-56.7%[inhibitor]
COc1ccc(OC)c(-c2cc(Cl)c3c(c2)CC(CNC(=O)c2cccnc2SC)O3)c1 (stereo not drawn)	15.6%
COc1ccc(CNc2ccnc(-c3cccnc3)n2)c(OC)c1	-15.0%
CC(=O)N1CCC2(CC1)CCN(c1cccc(-c3ccccc3)c1)CC2	-24.6%
c1ccc(CN2CCN(Cc3ccc4c(c3)CN(Cc3c[nH]c5ccccc35)CCO4)CC2)nc1	-7.6%
c1ccc2c(Nc3ccncc3)nc(-c3ccoc3)nc2c1	-4.9%
Cc1cnc(CNc2ncncc2-c2ccccc2C)cn1	-4.9%
S=c1nc[nH]c2nc[nH]c12	0.9%&-31.5%
COc1ccc2[nH]c(-c3ccccc3)c(CCNC(C)=O)c2c1	-2.6%&-20.6%
CN(C)c1ncc2nc(-c3cc(F)cc(F)c3)c(=O)n(C3CC3)c2n1	-25.8%
O=C(c1ccco1)N1CCC2(CC1)CCN(c1ccccn1)CC2	-54.1%[inhibitor]
CC(C)NS(=O)(=O)c1cc(C(F)(F)F)ccc1/C=C/C(=O)O	-51.9%[inhibitor]
CCC(COC)NC(=O)c1cnn(-c2ncc3c(n2)-c2ccccc2CC3)c1C (stereo not drawn)	-9.3%
Cc1cccc(C)c1NC(=O)C(C)N (stereo not drawn)	89.1µM*!
Clc1ccc(/C=C/c2ccnc3ccccc23)c(Cl)c1	6.6%
Cc1ccc(O)cc1	?
CC(=O)OC[C@H]1O[C@@](COC(C)=O)(O[C@H]2O[C@H](COC(C)=O)[C@@H](OC(C)=O)[C@H](OC(C)=O)[C@H]2OC(C)=O)[C@@H](OC(C)=O)[C@@H]1OC(C)=O	-27.5%
C1CCc2nnnn2CC1	-7.3%&-13.2%&-42.7%
CN(C)CC[C@@H](c1ccc(Cl)cc1)c1ccccn1	5.2%&-16.1%&9.3%
COc1ccc2[nH]c(C(O)C(O)c3nc4c(OC)c(OC)ccc4[nH]3)nc2c1OC (stereo not drawn)	26.3%
COc1ccc(CN2Cc3ccccc3OC(c3ccccc3OC)C2)c(O)c1 (stereo not drawn)	11.5%
CS(=O)(=O)N1CCC2(CCN(Cc3ccncc3)CC2)CC1	-42.8%[inhibitor]
Cc1ccccc1-c1cncnc1Nc1ccccc1	-24.4%
CCOC(=O)C[n+]1cccc(Br)c1	-23.8%
Cc1cnc(SCc2ccccn2)nc1C1CCCN(C(=O)c2cc3ccccc3oc2=O)C1 (stereo not drawn)	17.8%
CC1(COc2ccc(C[C@H]3SC(=O)NC3=O)cc2)CCCCC1	-13.8%
N#Cc1ccc(CN2CCC3(CCNCC3)CC2)cc1	?
CCC[C@@]1(CCc2ccccc2)CC(O)=C([C@H](CC)c2cccc(NS(=O)(=O)c3ccc(C(F)(F)F)cn3)c2)C(=O)O1	22.9%
Cc1ccc2c(Cl)cc(Cl)c(O)c2n1	?
COc1cc2c(C=O)c3c4c(cc(OC)c(OC)c4c2cc1OC)CCN3C	15.8%
COc1ccc(CNC(=O)[C@@H]2CC=C[C@@H]3CCN(Cc4ccccc4)C(=O)[C@@H]32)cc1	?
O=C(C[n+]1ccccc1Cl)c1cccc([N+](=O)[O-])c1	?

# These rows are one share of the data. The share of hits here may be higher or lower than overall.
